High-throughput results as filed in PubChem BioAssay.
Vif TR-FRET = inhibitors of Vif binding to APOBEC3G peptide, primary screen, biochemical, TR-FRET, GST-Vif 1-94, biotin-A3G peptide, dose response retest (AID 1117319) | Virion infectivity factor (Human immunodeficiency virus type 1 group M subtype B (isolate … | TR-FRET GST-Vif / biotin-A3G peptide binding; higher % means a stronger effect; test concentration not given here; strong numbers were not always called active | inhibition, %; hits with a dose series show IC50 in µM | actives 0.57% (n = 260,000);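 active = above the screen mean plus three standard deviations and confirmed in dose response; inconclusive = results disagree or hit not tested in dose response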;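 also: Vif residues 1-94 fused to GST binding biotinylated APOBEC3G peptide 110-148; 0% = full assay without inhibitor and 100% = GST in place of GST-Vif; retest series ran down from 100 µM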
rRNA inh HTS = reduced GFP signal of wild-type E. coli, primary screen, bacterial rRNA inhibitor project, GFP/RFP fluorescence, OD600, single point; E. coli WT GFP vs humanized-ribosome RFP mutants, 24 h; stronger effect = lower value; DMSO median 0, no signal -100; GFP signal change (wild-type ribosome), % (no concentration beside the values); actives 1.6% (n = 350,000); AID 720706, 2013;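 active = significant combined selectivity score with lowered wild-type GFP, culture density cut under 30%, mutant RFP and density less affected; inactive = any of these conditions unmet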; also: one replicate is shown; some compounds called inactive have numbers as strong as hits
Ecoli growth = E. coli growth inhibition, primary screen, OD600. Escherichia coli growth, 23 h; stronger effect = lower value. AID 1053175, 2014. actives 0.21% (n = 330,000). OD600 absorbance (test concentration not listed);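 active = OD600 absorbance below the run mean of sample wells minus 3.6 SD, in any replicate, cut at about 0.56 in these data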;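 also: stock transfer was 300 nL into about 60 µL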
ALR H2O2 inh = inhibitors of human ALR sulfhydryl oxidase, primary screen, biochemical, H2O2 detection, HRP-luminol luminescence, single point | actives 3.8% (n = 290,000) | purified ALR, DTT oxidation | inhibition, % (test concentration not listed) | FAD-linked sulfhydryl oxidase ALR (Homo sapiens), P55789 | AID 485317, 2010;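 active = mean and each replicate at 75% or more; inconclusive = only one of the two met; inactive = neither met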;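 also: stock transfer was 7.5 nL into about 7.5 µL; 0% = neutral wells and 100% = wells with inactivated enzyme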
Target sequence (P55789 whole entry, looked up): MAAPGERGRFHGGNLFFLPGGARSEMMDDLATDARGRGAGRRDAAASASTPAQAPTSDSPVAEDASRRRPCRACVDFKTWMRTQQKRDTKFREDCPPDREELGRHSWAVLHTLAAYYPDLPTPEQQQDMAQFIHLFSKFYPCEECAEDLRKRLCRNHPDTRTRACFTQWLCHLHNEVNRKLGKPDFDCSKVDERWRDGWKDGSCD
AF4-AF9 inh = inhibitors of AF4 peptide binding to AF9, primary screen, biochemical, AlphaScreen, biotin-AF4 peptide, FLAG-AF9, single point; Protein AF-9 (Homo sapiens), P42568; inhibition, % at 10 µM; actives 0.47% (n = 350,000); AID 651704, 2012;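 active = every replicate reaching a set inhibition limit, whatever the replicate mean, cut at about 25% in these data; inconclusive = mean inhibition reaches that limit but some replicates miss it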;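 also: 0% = plate neutral control median and 100% = total signal loss; the record names both 10 and 1 µM as test concentration; the first replicate is given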
HNF4A DNA FP = change in binding of human HNF4A to DNA, primary screen, biochemical, fluorescence polarization, FITC-DNA; Hepatocyte nuclear factor 4-alpha (Homo sapiens), P41235; actives 0.3% (n = 360,000); 1 h; activity change, % at 10 µM; in the data active = activity change above about 30%, passing the limit was not always enough;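 also: controls were the assay level and a saturating level of protein; the project sought stronger binding though the title names inhibitors; some compounds called inactive have numbers as strong as hits; positive values seem to mean higher polarization but the record does not say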
Target sequence (P41235 whole entry, looked up): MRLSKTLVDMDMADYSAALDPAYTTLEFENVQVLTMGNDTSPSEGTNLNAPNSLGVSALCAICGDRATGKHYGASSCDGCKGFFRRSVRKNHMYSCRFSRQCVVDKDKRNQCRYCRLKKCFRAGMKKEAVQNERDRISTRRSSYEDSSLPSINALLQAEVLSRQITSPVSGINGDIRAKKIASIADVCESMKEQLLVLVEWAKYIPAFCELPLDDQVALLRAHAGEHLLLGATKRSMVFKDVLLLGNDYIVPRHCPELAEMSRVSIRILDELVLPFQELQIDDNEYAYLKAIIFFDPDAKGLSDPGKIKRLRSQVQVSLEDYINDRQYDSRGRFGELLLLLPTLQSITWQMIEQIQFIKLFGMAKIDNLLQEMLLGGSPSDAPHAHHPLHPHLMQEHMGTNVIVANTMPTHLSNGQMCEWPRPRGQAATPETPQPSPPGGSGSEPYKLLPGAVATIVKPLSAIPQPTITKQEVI
FGF22 binding = binders of human FGF22 protein, primary screen, FGF22 synaptogenesis inhibitor project, biophysical, thermal shift, single point | calls only at 9.99 µM | AID 651658, 2012 | actives 1.5% (n = 340,000) | recombinant FGF22 thermal shift, SYPRO orange fluorescence; percent of sucrose octasulfate shift, DMSO zero;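 active = melting point raised past a set limit in the mean and every replicate; inconclusive = no clear call; three in four hits are not shown here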
Target sequence (Q9HCT0 whole entry, looked up): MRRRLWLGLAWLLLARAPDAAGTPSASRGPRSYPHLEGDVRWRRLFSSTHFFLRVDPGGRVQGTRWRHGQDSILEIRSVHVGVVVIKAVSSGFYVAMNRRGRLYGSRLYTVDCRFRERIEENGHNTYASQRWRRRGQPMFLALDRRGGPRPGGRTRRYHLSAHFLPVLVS
rRNA inh HTS OD600 = also measured in rRNA inh HTS; calls as there; OD600 change, %; measured here: OD600 growth;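 optical density of the mix in the first replicate; 0 = DMSO median and -100 = no signal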
rRNA inh HTS RFP = further read-out of rRNA inh HTS, marked with its call; RFP signal change, %; measured here: RFP humanized mutant strains;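 first replicate; 0 = DMSO median and -100 = no signal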
Numbers without * were called inactive; i = inactive; ? = inconclusive; / = no result given; & = joins results of further samples; ! = not active in a repeat. Only part of the results is shown (hit frequency here may not be typical).

SMILES	Vif TR-FRET	rRNA inh HTS	rRNA inh HTS OD600	rRNA inh HTS RFP	Ecoli growth	ALR H2O2 inh	AF4-AF9 inh	HNF4A DNA FP	FGF22 binding
O=C(NNS(=O)(=O)c1ccc(F)cc1F)C1Cc2c(ccc3ccccc23)O1 (stereo not drawn)	2%	/	/	/	0.68	-9	/	3.8	/
CN(C(=O)c1cc2nc(-c3ccco3)cc(C(F)(F)F)n2n1)C1CCCCC1	0%	/	/	/	0.7	-2	/	3.6	/
Cc1cc(C)c(OCCCNCc2ccccc2)c(Br)c1	/	-38	-38	-1.7	0.64	/	0.3	-2.3	i
O=C(N/N=C/c1ccc(C(=O)O)cc1)C(=O)N1CCCCCC1	/	11	9	0.8	/	0	-2.7	-2.1	i
C[C@H](CO)N1C[C@H](C)[C@@H](CN(C)S(=O)(=O)c2ccc(F)cc2)Oc2cc(Br)ccc2S1(=O)=O	/	-25*!	-18*!	-1.8*!	/	/	1.9&2.7&0.8	/	i
COCC1CCN(Cc2cn[nH]c2-c2cc(OC)c(OC)c(OC)c2)CC1	8%	11	12	-0.5	0.66	-5	-0.9	-0.6	i
C[C@H]1CN([C@@H](C)CO)C(=O)c2cc(N(C)C)ccc2O[C@@H]1CN(C)Cc1ccccc1	/	1	1	0.2	/	/	-4.3	/	i
CSC[C@@H]1NC(=S)N(c2ccc(C)cc2)C1=O	26%	/	/	/	0.69	12	7.6	3.1	i
CCOc1ccc(N(C(=O)CNC(=O)c2ccco2)C(C(=O)NC2CCCC2)c2cccnc2)cc1 (stereo not drawn)	/	3	14	-0.5	0.6	/	1.6	1.0	i
COc1nc(NCC(C)C)nc(Oc2ccc(OCc3ccccc3)nn2)n1	-3%	/	/	/	0.74	39	/	4.2	/
CC(C)OC(=O)N(C)C[C@H]1OCc2cn(nn2)CCCC(=O)N([C@H](C)CO)C[C@@H]1C	8%	19&-1	2&1	2.5&-1.0	/	/	-2.9&0.3	2.4	i
COc1ccc(C(=O)O/N=C(\N)Cc2ccc(Cl)cc2Cl)cc1OC	/	/	/	/	0.65	23	/	1.2	/
C[C@H](CO)N1C[C@H](C)[C@H](CN(C)CC2CCCCC2)Oc2c(NC(=O)c3cnccn3)cccc2C1=O	/	1	12	-1.2	/	/	-1.7	/	i
Cc1ccc(S(=O)(=O)NCc2cccnc2)c(C)c1	/	2	-6	1.7	0.68	-16	1.2	2.8	i
COc1ccc(CCn2c(C)nc3ccccc3c2=O)cc1OC	4%	6	2	2.0	0.65	3	-1.0	0.3	i
CN(C)c1cccc2c(S(=O)(=O)Nc3ccccn3)cccc12	8%	/	/	/	0.71	-18	/	5.2	/
O=C1NC(NS(=O)(=O)c2ccccc2)(C(F)(F)F)C(=O)N1Cc1cccnc1 (stereo not drawn)	-6%	/	/	/	0.66	-11	/	3.2	/
Cc1c(CCOC(=O)CC23CC4CC(CC(C)(C4)C2)C3)sc[n+]1CC(=O)c1ccccc1	/	-63	-82	-20	0.64	14	27*	0.7	/
CC(C)CC#Cc1cnc2c(c1)C(=O)N([C@@H](C)CO)C[C@@H](C)[C@H](CN(C)C(=O)Nc1cc(F)ccc1F)O2	/	1	-3	3.1	/	/	-0.5	/	i
CC(OC(=O)c1cccc(-n2cnnn2)c1)C(=O)Nc1ccc(F)cc1 (stereo not drawn)	/	13	5	3.6	0.68	-4	-1.4	-1.2	i
Cc1cccc(Nc2ncc3c(n2)CC(c2ccco2)CC3=O)c1 (stereo not drawn)	3%	/	/	/	0.75	-8	/	0.7	/
OC(CCN1CCCCC1)(c1ccccc1)C1C[C@@H]2C=C[C@H]1C2 (stereo partly drawn)	/	7	-5	-0.1	/	1	0.0	0.0	i
Cc1nn(CC(=O)OCC(=O)NCCc2ccc(F)cc2)c(C)c1[N+](=O)[O-]	/	7	11	1.6	0.68	2	1.3	0.3	i
O=[N+]([O-])c1ccc(N2CCN(c3ccc(O)cc3)CC2)c(Cl)c1	?	-8	1	1.6	0.72	/	17	-1.6	i
COc1ccc2[nH]c(-c3ccc(C)cc3)cc(=O)c2c1	-1%	/	/	/	0.6	-1	/	1.6	/
CCCOc1cccc(C(=O)N/N=C/c2coc3ccccc3c2=O)c1	2%	0	2	0.4	/	97*	-4.6	-1.1	i
O=C(NCc1ccccc1C(F)(F)F)C1CC(c2cccc(F)c2)=NO1 (stereo not drawn)	-12%	2	15	-2.0	0.67	-1	-26	3.5	i
Cc1ccc(C)c(N(CC(=O)NCCSCc2ccco2)S(C)(=O)=O)c1	12%	/	/	/	0.67	4	/	0.2	/
Cc1cccc(NC(=O)CSc2ncnc3nc[nH]c23)c1C	10%	9	3	1.3	0.6	-7	-0.3	2.9	i
Cc1ccc(-c2cc(-c3ccc(C)o3)nc(N)c2C#N)cc1	27%	/	/	/	0.71	2	/	15	/

3 compounds already listed, ordered by length of the SMILES, highest first:
SMILES	Vif TR-FRET	rRNA inh HTS	rRNA inh HTS OD600	rRNA inh HTS RFP	Ecoli growth	ALR H2O2 inh	AF4-AF9 inh	HNF4A DNA FP	FGF22 binding
O=C1NC(NS(=O)(=O)c2ccccc2)(C(F)(F)F)C(=O)N1Cc1cccnc1 (stereo not drawn)	-6%	/	/	/	0.66	-11	/	3.2	/
O=[N+]([O-])c1ccc(N2CCN(c3ccc(O)cc3)CC2)c(Cl)c1	?	-8	1	1.6	0.72	/	17	-1.6	i
Cc1ccc(-c2cc(-c3ccc(C)o3)nc(N)c2C#N)cc1	27%	/	/	/	0.71	2	/	15	/

(list continues)
SMILES	Vif TR-FRET	rRNA inh HTS	rRNA inh HTS OD600	rRNA inh HTS RFP	Ecoli growth	ALR H2O2 inh	AF4-AF9 inh	HNF4A DNA FP	FGF22 binding
S=c1nc2c(n[nH]1)c1ccccc1n2CCc1ccccc1	?	1	8	0.7	0.66	7	1.7	-0.4	i
COc1ccc(C(=O)NC2CCN(S(=O)(=O)Cc3ccccc3)CC2)c(OC)c1	-3%	/	/	/	0.75	0	/	-2.9	/
CC(=O)N(Cc1ccc(F)cc1)c1cccc(C)c1C	-4%	-15	-18	-2.2	0.69	-2	-2.4	1.9	i
O=C(OCc1nc2ccsc2c(=O)[nH]1)c1ccco1	3%	5	3	-2.4	0.61	/	-3.6	-1.0	i
CCOc1ccccc1NC(=O)Cn1c(C)cc(COC)c(C#N)c1=O	-10%	/	/	/	0.72	-2	/	3.2	/
O=C(Nc1ccc2c(c1)CN(Cc1ccco1)CC2)C1CCCO1 (stereo not drawn)	/	3	7	0.0	0.7	-9	0.4	-3.3	i
COc1ccccc1C(OC(=O)c1ccco1)C(=O)NC(C)(C)C (stereo not drawn)	19%	/	/	/	0.71	-6	/	1.8	/
Cc1ccc(S(=O)(=O)N/N=C\c2ccc([N+](=O)[O-])o2)cc1C	/	1	1	-3.6	/	-67	-1.4	1.2	i
Cc1nc2ccccc2nc1N/N=C/c1ccc(O)cc1O	29%	-17*	-1.0*	6.1*	/	96*	18	-0.7	i
CCNC(=O)/C=C/c1ccccc1[N+](=O)[O-]	3%	6	-3	6.6	0.7	-6	-2.4	4.2	i
CC1CCc2sc(C(=O)NN=C3CCC(c4ccccc4)CC3)cc2C1 (stereo not drawn)	0%	-7	-3	-3.0	0.71	-16	0.6	0.2	i
Cn1c(NC(=O)c2ccc(S(=O)(=O)N3CCOCC3)cc2)cc(=O)n(C)c1=O	-3%	6	-2	5.7	0.65	1	-0.2	-3.4	i
Cn1cc(C(=O)N2CCc3ccccc32)cn1	-6%	/	/	/	0.71	/	/	0.6	/
COCCCNC(=S)N(Cc1ccccc1)Cc1ccc(F)cc1	-4%	0	-8	-1.6	0.7	-2	-2.4	-1.5	i
COc1cccc(S(=O)(=O)Nc2ccc3c(c2)[C@@H]2C[C@@H](CC(=O)O)O[C@H](CO)[C@@H]2O3)c1	/	2	2	-3.8	/	/	0.3	/	i
COCCCNC(=O)CN(c1cccc(Cl)c1)S(C)(=O)=O	18%	/	/	/	0.68	/	/	1.2	/
CO[C@@H]1CN(C)C(=O)c2cc(NS(C)(=O)=O)ccc2OC[C@@H](C)N(C(=O)C2CCC2)C[C@H]1C	/	0	0	0.7	/	/	-1.2	/	i
Fc1ccc(CSc2nncn2NCc2ccc3c(c2)OCO3)cc1	1%	/	/	/	0.7	-7	/	4.2	/
CCC(CC)C(=O)OCC(=O)Nc1ccc(S(=O)(=O)N2CCOCC2)cc1OC	-4%	-5	-10	-0.3	0.7	2	/	0.6	/
O=C(C[C@H]1CC[C@@H]2[C@H](COC[C@H](O)CN2C(=O)c2ccccc2)O1)Nc1nccs1	/	-1	7	5.3	/	/	0.4	/	i
O=C(Nc1nc2c(Cl)cccc2s1)c1ccc(Br)o1	-21%	/	/	/	0.69	0	/	0.8	/
COCCCNC(=O)C1CCN(c2nc(C)cc(C)n2)CC1	1%	/	/	/	0.69	-5	/	1.6	/
O=C(O)c1cccc(Cl)n1	4%	14	10	0.7	0.73	4	-6.8	-3.0	i
CCCC(=O)Nc1cc(=O)[nH]c2ncnn12	2%	/	/	/	0.71	1	/	3.1	/
COc1ccc(OC)c(C(C[N+](=O)[O-])c2c(C)cc3ccccn23)c1 (stereo not drawn)	/	3	4	5.0	0.66	-5	8.2	1.0	i
CSc1sc(C(=O)NN)c2c1C(O)CCC2 (stereo not drawn)	/	10	4	-0.5	0.7	2	-4.1	-1.1	i
COc1ccc(C#Cc2ccc([C@@H]3[C@@H](CO)N4CCCCN(C(=O)Nc5ccccc5)C[C@H]34)cc2)cc1	/	-53	-71	-9.3	/	/	-0.5	/	i
O=C(NC(=O)N1CCOCC1)c1ccccc1	-2%	10	3	-8.2	0.67	0	-2.6	-2.4	i
C[C@H]1CN([C@@H](C)CO)C(=O)Cc2cc(NS(=O)(=O)c3ccc(F)cc3)ccc2O[C@H]1CN(C)C(=O)Nc1ccc(F)cc1	/	2	4	-1.5	/	/	-2.6	/	i
O=C(NN1C(=O)/C(=C/C=C/c2ccco2)SC1=S)c1ccccc1O	1.9µM*	-6	1	10	0.65	69	2.9	-22	i
Nn1c(SCc2nc3ccccc3[nH]2)nnc1-c1cccnc1	-2%	/	/	/	0.74	-5	/	4.7	/
COc1ccc(/C=N/N2CCN(c3ccccc3OC)CC2)cc1OC	7%	/	/	/	/	32	/	3.5	/
Cc1cc(C(=O)Nc2cccc3c2O[C@@H](CN(C)Cc2ccc(C(=O)O)cc2)[C@H](C)CN([C@H](C)CO)C3=O)n(C)n1	/	4	2	-0.2	/	/	-2.4	/	i
COc1cc(C(=S)N2CCCC2)ccc1OCc1ccccc1	/	-19	-16	0.0	0.71	-9	3.4	-1.6	i
CSc1nnc(C)c(=O)n1COC(=O)c1ccccc1	-14%	-2	-3	-4.0	0.69	-5	-1.8	2.6	i
Cc1cc(C)c(S(=O)(=O)N2C=CC(C(F)(F)F)=NCC2)c(C)c1	9%	-1	-2	0.2	0.72	4	/	-1.1	/
CNC[C@H]1Oc2ccc(NC(=O)Cc3ccccc3)cc2CC(=O)N([C@@H](C)CO)C[C@@H]1C	/	5	3	-1.5	/	/	-17	/	i
COc1cc(NC(=O)COC(=O)c2n[nH]c3ccccc23)c(C)cc1[N+](=O)[O-]	/	18	17	0.9	0.69	-12	-3.1	2.6	i
Cc1cc(OCCN2CCOCC2)nc2ccccc12	1%	/	/	/	0.73	2	/	-4.2	/
